Mtb H37Rv = Confirmatory growth inhibition assay against Mycobacterium tuberculosis H37Rv, potency (AID 1949); most inactive calls were filed without a number and no value below 0 was filed; one-dose inhibition, % at 10 µg/mL; IC50 in µg/mL for titrated hits; 100,000 tested, 1.6% active;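 active = confirmed in a dose series; inconclusive = about 50% or more but not retested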;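 also: bacteria grown 7 days with compound before Alamar blue readout; 0% = untreated bacteria and 100% = reference antibiotic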
Active calls of the source: *; i = inactive; ? = inconclusive. Some of the compounds tested. The share of hits here may be higher or lower than overall.

SMILES	Mtb H37Rv
CC1Cc2ccccc2N1C(=O)c1cnn2c(C(F)F)cc(-c3ccccc3)nc12 (stereo not drawn)	8%
CCC(C)c1ccccc1NC(=O)C1c2ccccc2Oc2ccccc21 (stereo not drawn)	i
Cc1cccc(C)c1NC(=O)CSCc1cccc(Br)c1	2%
Cc1cc(=O)[nH]c(SCC(=O)NCCc2ccc(Cl)cc2)n1	i
O=C(C1CCCCC1)N1CCC(Cc2ccccc2)CC1	i
CCN(CC)C(=O)c1cccc(NS(=O)(=O)c2ccc(C)cc2)c1	0%
COc1ccc(NC(=O)CSc2nc(Cc3ccccc3)cc(C(F)(F)F)c2C#N)c(OC)c1	i
COc1ccc(C2CC(=O)Nc3ccc4ccccc4c32)cc1 (stereo not drawn)	6%
CCN(CC(O)COc1ccc(Cl)cc1Cl)C1CCCCC1 (stereo not drawn)	?
CN1CCN(Cc2ccccc2OC(=O)N(C)C)CC1	i
CCCCn1cnc2sc3c(c2c1=N)CCCC3	1%
NS(=O)(=O)c1ccc(NC(=O)CSc2nnc(-c3ccccc3)c(-c3ccccc3)n2)cc1	i
CCCN1CCC(NC(=S)Nc2ccc3c(c2)OCO3)CC1	i
NC1=NS(=O)(=O)NC1c1ccc(Br)cc1 (stereo not drawn)	i
O=C(CN(Cc1ccc(Cl)cc1)S(=O)(=O)c1ccccc1)Nc1ccccc1C(F)(F)F	i
O=Cc1ccc(-c2cccc(Cl)c2Cl)o1	5%
COc1ccc(N2CCN(S(=O)(=O)c3c(Cl)cccc3Cl)CC2)cc1	i
O=c1c2ccccc2nc(/C=C/c2cccs2)n1-c1ccc([N+](=O)[O-])cc1	0%
CCOc1ccc(C(=O)Nc2c(C)cccc2CC)cc1Cl	4%
O=S(=O)(c1ccc2c(c1)OCCO2)N1CCN(C(c2ccccc2)c2ccccc2)CC1	2%
C=CCn1c(SCC(=O)Nc2ccc(C(=O)O)cc2)nnc1-c1ccco1	i
COc1ccc([N+](=O)[O-])cc1NC(=O)c1cccc(Cl)c1Cl	i
O=S(=O)(c1ccc(Br)cc1)N1CCN(Cc2ccc3c(c2)OCO3)CC1	i
COc1ccc(-c2c(-c3ccc(OC)cc3O)n[nH]c2C)cc1	?
COc1cccc(NC(=O)CN(c2ccc(C)c(Cl)c2)S(=O)(=O)c2ccccc2)c1	4%

Of the compounds above, these contain a thiophene ring, fused or not.
SMILES	Mtb H37Rv
CCCCn1cnc2sc3c(c2c1=N)CCCC3	1%
O=c1c2ccccc2nc(/C=C/c2cccs2)n1-c1ccc([N+](=O)[O-])cc1	0%

Other results follow.
SMILES	Mtb H37Rv
Cc1ccc(C)c(OCC(=O)n2cnnc2N)c1	i
O=C(N1CCOCC1)N1CCN(S(=O)(=O)c2ccc3ccccc3c2)CC1	i
O=C1CC(c2ccc(F)cc2)c2cc3c(cc2N1)OCO3 (stereo not drawn)	0%
COc1cccc(C(=O)N2CCN(S(=O)(=O)c3ccccc3)CC2)c1OC	i
COc1ccc(C(=O)Nc2ccc(C)cc2Br)cc1OC	i
COC(=O)c1sc2cc(NC(=S)NCCn3cc(Br)cn3)ccc2c1Cl	i
Cn1c(=O)c2c(nc(N3CCc4ccccc4C3)n2Cc2ccccc2Cl)n(C)c1=O	i
O=C(CN1CCOCC1)NC1CC2CCC1C2 (stereo not drawn)	i
CSc1ccc(S(=O)(=O)N(CC(=O)Nc2ccccc2C(C)C)c2ccc(C)cc2)cc1	2%
COc1ccc(NC(=O)c2ccccc2-c2ccccc2)cc1Cl	i
CN(C)S(=O)(=O)c1ccc2[nH]c(=O)[nH]c2c1	i
COc1ccc(OC)c(N(CC(=O)N2CCN(Cc3ccccc3)CC2)S(C)(=O)=O)c1	i
Cc1cc(C(=O)Nc2ccc(Cl)cc2C(F)(F)F)cs1	i
Cc1cccc(OCC(=O)N2CCC(N(CCc3ccccc3)Cc3ccccc3)CC2)c1	48%
Cc1ccc(NC(=O)NN2CCOCC2)cc1	i
CC1(C(=O)NCc2ccc3c(c2)OCO3)CC1(Cl)Cl (stereo not drawn)	i
CCN1CCN(c2ccc(NC(=O)c3cccs3)cc2Cl)CC1	i
COC(=O)C1=C(C)OC(=O)C1(NC(=O)C1CCCCC1)C(F)(F)F (stereo not drawn)	i
COc1ccc(C(=O)NC(=S)Nc2cccnc2)cc1[N+](=O)[O-]	1%
COc1cccc(OCCOc2ccc(C)cc2Cl)c1	6%
COC(=O)c1sc2ncn(Cc3ccccc3Cl)c(=O)c2c1C	i
CC(=O)N1N=C(c2cccc(NS(=O)(=O)c3ccccc3)c2)CC1c1ccco1 (stereo not drawn)	i
Cc1ccc(N2C(N)=C(C#N)C(c3cccnc3)C3=C2CC(C)(C)CC3=O)cc1 (stereo not drawn)	i
CCCCOc1ccccc1C1C(C(=O)OC)=C(C)NC2=C1C(=O)CC(c1ccco1)C2 (stereo not drawn)	i
c1ccc2[nH]c(SCc3cscn3)nc2c1	i
(cont.)
SMILES	Mtb H37Rv
Cc1cccc(C(=O)Nc2ccccc2C)c1	i
Cc1ccc(N2CCN(C(=O)Nc3ccc(F)cc3)CC2C)cc1 (stereo not drawn)	i
COc1ccccc1NC(=S)N1CCN(c2ccccc2OC)CC1	i
CC(C)N(Cc1nc(-c2ccc(Cl)cc2)no1)C(=O)c1ccc2c(c1)OCO2	i
CCOc1ccccc1C(=O)Nc1ccc([N+](=O)[O-])c(NC(=O)c2ccccc2OCC)c1	i
O=C(O)C1CC=CCC1C(=O)NC1CCCC1 (stereo not drawn)	i
CCC(=O)Nc1ccc2c(c1)ncn2C	i
CCOc1ccc(-c2csc(NC(=O)Nc3ccccc3)n2)cc1	i
CN(C)CCNCCCCOc1ccc(Br)cc1Cl	14%
O=C(CN1C(=O)c2cccc3cccc1c23)N1CCCCC1	i
CC(=O)c1ccc(Cc2cnc(N)s2)cc1	i
O=C(Nc1ccccc1-c1ccccc1)c1cccs1	3%
CCCCSc1nnc(-c2ccc(C)cc2)o1	44%
O=C(COc1ccc(Br)cc1Cl)N1CCN(c2cccc(Cl)c2)CC1	i
Cc1c(NC(=S)NC(=O)c2sc3ccccc3c2Cl)cccc1C(=O)O	i
O=C(c1ccccc1)C1C2C=CC(C2)C1C(=O)c1ccccc1 (stereo not drawn)	0%
COc1ccc(OC)c(NS(=O)(=O)c2ccc(NC(=O)c3ccc(N(C)S(=O)(=O)c4ccc(C)cc4)cc3)cc2)c1	i
CS(=O)CCC(C(=O)O)N1C(=O)c2ccccc2C1=O (stereo not drawn)	i
CC(C)c1ccc(CC2(CCc3ccncc3)C(=O)NC(=O)NC2=O)cc1	i
CCCN(CCC)S(=O)(=O)c1ccc(NC(=O)CN2C(=O)c3ccccc3C2=O)cc1	i
CS(=O)(=O)N1CCN(c2ccc(NC(=O)c3ccc4c(c3)OCO4)cc2)CC1	i
CCN(CC)C(=O)c1cc2cc(Cl)ccc2oc1=O	1%
Cc1ccc(S(N)(=O)=O)cc1NC(=O)COc1ccccc1	3%
COc1ccc(C2=NN(C(C)=O)C(c3ccc(Br)cc3)C2)c(OC(C)=O)c1 (stereo not drawn)	8%
CC1=NN(c2nc(-c3ccccc3O)cs2)C(=O)/C1=C\c1ccc(N(C)C)cc1	33%
Next section:
SMILES	Mtb H37Rv
Cn1nnc2cc(NC(=O)N3CCC(c4ccccc4)C3)ccc21 (stereo not drawn)	i
CC(C)Oc1cccc(C(=O)N2CCN(c3ccc([N+](=O)[O-])c(N4CCOCC4)c3)CC2)c1	i
CCC(NC(=O)CCc1ccccc1)c1ccccc1 (stereo not drawn)	i
CC(NC(=S)Nc1ccc([N+](=O)[O-])cc1)c1ccncc1 (stereo not drawn)	i
COc1ccc(-c2nnc(-c3cc4cc(Br)ccc4oc3=O)o2)cc1	3%
Cc1ccc(-c2noc(CSc3nnnn3-c3ccccc3)n2)cc1	i
O=C(CSc1nnc(-c2ccccc2)o1)Nc1cc(C(F)(F)F)ccc1Cl	i
COC(=O)c1c(-c2cccnc2)csc1NC(=O)c1ccc2c(c1)OCO2	i
CCC(=O)Nc1ccc(C(=O)NC2CCCCC2)cc1	2%
Cc1ccc(C(C)NC(=O)C23CC4CC(CC(C4)C2)C3)cc1 (stereo not drawn)	i
COc1cccc(C2CC(C(F)(F)F)n3nc(C(=O)N4CCCc5ccccc54)cc3N2)c1 (stereo not drawn)	1%
Cn1c(SCc2c(Cl)cccc2Cl)nnc1-c1ccc([N+](=O)[O-])cc1	i
Cc1ccc(C)c(OCC(=O)Nc2ccc(NC(=O)COc3cc(C)ccc3C)cc2)c1	i
COc1ccc(-c2nnc3c4ccccc4c(C)nn23)cc1S(=O)(=O)N1CCCCC1	i
COc1cc(NC(=S)NC(=O)COc2cccc(C)c2C)ccc1NC(=O)C(C)C	i
COc1ccc(-n2c(-c3ccc(C(C)(C)C)cc3)n[nH]c2=S)cc1	0%
COc1cccc(NS(=O)(=O)c2ccc(-c3ccc(C)cc3)cc2)c1	i
COc1ccc(-c2cc(=O)c3cc(OCC(N)=O)ccc3o2)cc1	i
COc1ccc(-c2noc(COc3ccc4c(c3)OCO4)n2)cc1	10%
O=S(=O)(NCCSc1nnnn1-c1ccccc1)c1cccs1	i
O=C(Nc1sc2c(c1C(=O)NCCc1ccccc1)CCC2)c1ccccc1F	5%
CS(=O)(=O)N(CC(=O)O)c1ccccc1Cl	i
CC(=O)Nc1ncc2c(n1)CC(c1ccc(Cl)cc1)CC2=O (stereo not drawn)	i
S=C(Nc1ccccc1)NC1C2CN3CCN(C2)CC1(c1ccccc1)C3 (stereo not drawn)	i
COc1ccc(-c2nc3ccccc3c(=O)n2-c2cccc(C)c2C)cc1	i

6 entries from above, in CSV form:
SMILES,Mtb H37Rv
CC(C)Oc1cccc(C(=O)N2CCN(c3ccc([N+](=O)[O-])c(N4CCOCC4)c3)CC2)c1,i
CC(=O)Nc1ncc2c(n1)CC(c1ccc(Cl)cc1)CC2=O (stereo not drawn),i
COc1ccc(-c2nnc3c4ccccc4c(C)nn23)cc1S(=O)(=O)N1CCCCC1,i
CCC(NC(=O)CCc1ccccc1)c1ccccc1 (stereo not drawn),i
S=C(Nc1ccccc1)NC1C2CN3CCN(C2)CC1(c1ccccc1)C3 (stereo not drawn),i
CS(=O)(=O)N(CC(=O)O)c1ccccc1Cl,i

3 of the compounds above, as labelled records.
COc1ccc(-c2noc(COc3ccc4c(c3)OCO4)n2)cc1
  Mtb H37Rv: 10%
COc1ccc(-c2cc(=O)c3cc(OCC(N)=O)ccc3o2)cc1
  Mtb H37Rv: i
O=C(Nc1sc2c(c1C(=O)NCCc1ccccc1)CCC2)c1ccccc1F
  Mtb H37Rv: 5%

Rewritten as labelled records: entries from further up.
COc1ccc(-n2c(-c3ccc(C(C)(C)C)cc3)n[nH]c2=S)cc1
  Mtb H37Rv: 0%
COc1cccc(NS(=O)(=O)c2ccc(-c3ccc(C)cc3)cc2)c1
  Mtb H37Rv: i
COc1ccc(-c2cc(=O)c3cc(OCC(N)=O)ccc3o2)cc1
  Mtb H37Rv: i
COc1ccc(-c2noc(COc3ccc4c(c3)OCO4)n2)cc1
  Mtb H37Rv: 10%

(more compounds)
SMILES	Mtb H37Rv
COc1ccc2cc(Br)ccc2c1CC(=O)N1CCOCC1	i
O=C(NCc1ccccc1)c1cccc(NC(=S)Nc2ccc(Br)cc2Cl)c1	0%
CN1CCN(S(=O)(=O)c2ccc(Br)c3nsnc23)CC1	i
Cc1[nH]c(=O)[nH]c(=O)c1NC(=O)c1ccc(OC(C)C)cc1	0%
O=C(c1ccncc1)N1CCN(Cc2c[nH]c3ccccc23)CC1	i
COc1c(Cl)cccc1NC(=O)c1cccs1	i
CCOCCCNC(=O)c1cccc([N+](=O)[O-])c1C	i
CCOC(=O)c1ccccc1OC(=O)CSc1ccc(C(F)(F)F)cc1[N+](=O)[O-]	i
OCCCCNCc1cccc(Br)c1	i
CC1CCCc2sc3ncn4c(SCC(=O)c5ccc(Cl)cc5)nnc4c3c21 (stereo not drawn)	i
CCN(CC)c1ccc(NC(=O)c2sc3ccccc3c2Cl)c(C)c1	i
Cc1c(Cl)cccc1NC(=O)N1CCN(C2CCCCC2)CC1	i
CSc1nc2c(c(=O)[nH]1)C(c1ccc(OCc3ccccc3)cc1)C1=C(CC(C)(C)CC1=O)N2 (stereo not drawn)	i
O=C(NN1CCOCC1)c1cc(-c2cccnc2)nc2ccc(Br)cc12	2%
CCn1c(SCC(=O)Nc2ccc(F)cc2)nnc1-c1ccccc1	2%
COc1cc(OC)c(OC)cc1CNCc1ccc2c(c1)OCO2	4%
Fc1cccc(Cl)c1Cn1cc(NC(=S)NC2CCCC2)cn1	1%
COc1cccc(-c2nn3c(-c4ccc(C(C)(C)C)cc4)nnc3s2)c1	2%
COC(=O)CN(c1cc(Cl)ccc1OC)S(C)(=O)=O	i
COc1cc(Cl)c(S(=O)(=O)N2CCN(c3ccc(F)cc3)CC2)cc1Cl	4%
O=C(Cn1cnc2sc3c(c2c1=O)CCCC3)Nc1ccc(Cl)cc1	3%
COc1cc(NC(=O)CSc2ccccc2)ccc1NC(=O)COc1ccccc1	i
CCc1ccc(S(=O)(=O)NC(=S)Nc2ccccc2)cc1	i
CCn1c(CC(=O)Nc2ccccc2)nnc1SCC(=O)Nc1nc(-c2ccccc2)c(C)s1	i
CC(C)(C)c1ccc(-c2conc2N)cc1	?
(continued)
SMILES	Mtb H37Rv
COc1ccc(C=O)cc1CSc1nc2ccccc2[nH]1	i
C(CSC1=NCCN1)CSC1=NCCN1	i
Cc1sc2ncnc(SCc3ccc([N+](=O)[O-])cc3)c2c1C	i
COc1ccc2nc(NC(=O)CSCc3ccccc3)sc2c1	1%
COc1ccc(C(=O)ON2C(=O)CCC2=O)cc1I	i
CC(C)c1ccc(OCC(=O)N(C)Cc2ccccc2)cc1	2%
Cc1ccccc1N1C(=O)CC(N2CCN(c3ccccc3)CC2)C1=O (stereo not drawn)	i
COCc1nnc(NC(=O)c2ccc(NC(C)=O)cc2)s1	i
COc1ccc(S(=O)(=O)N(CC(=O)N2CCOCC2)c2cc(C)cc(C)c2)cc1OC	i
Cc1ccc(S(=O)(=O)NC(C)C(=O)Nc2ccc(Br)cc2)cc1 (stereo not drawn)	i
Cc1cc(C)c(C(=O)Nc2nc3ccc(S(C)(=O)=O)cc3s2)c(C)c1	i
COCC(=O)Nc1ccc(C)cc1Br	i
CC1CCC(C(C)C)C(OC(=O)CN2C(=O)c3ccccc3C2=O)C1 (stereo not drawn)	2%
